Screens: PubChem, several laboratories
Sa ugtP lethal: kills S. aureus RN4220 lacking UgtP; S. aureus RN4220 ugtP deletion, OD600 growth, 16 h; some inactives read as strong as hits; growth inhibition, % (test concentration not listed); 330,000 compounds, 0.54% hits;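 active means z-score under -3 and OD600 up to 0.15 on both plates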;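 further: plate controls were untreated wells for no effect and antibiotic for full effect; wells of about 80 µL received 100 nL stock; the first replicate is given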
Autofluor counter: flagged as autofluorescent in microsphere protease counterscreen; compound autofluorescence counterscreen, microsphere flow cytometry; hits give high values; fluorescence intensity (no concentration beside the values); 360,000 compounds, 3.1% hits; AID 624483;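 active means at least 3 SD above the mean of all compounds, about 16000 in these data; inconclusive means too few beads counted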;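 further: 100 nL of 1 mM stock went into each well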
RN4220 kill: S. aureus RN4220 growth inhibition; OD600, 16 h; inhibition, % (no concentration beside the values); 330,000 compounds, 0.33% hits;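 active means z-score of -3 or lower and OD600 up to 0.18 on both plates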;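 further: plate controls were untreated cells for no effect and reference antibiotic for full effect; stock transfer was 100 nL into about 80 µL; one replicate is shown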
Mtb hypoxia rep: Mtb hypoxia fluorescent reporter inhibition. 300,000 compounds, 0.1% hits. M. tuberculosis hypoxia-regulated fluorescent reporter, fluorescence. fluorescence inhibition, % (test concentration not listed);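 active means 35 to 45% if threefold the growth effect, above 45% if 1.5-fold the growth effect; inactive means the rest, general growth blockers included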;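 further: wells of about 50 µL received 100 nL stock; 0% = vehicle wells and 100% = reference inhibitor wells; whole bacteria with a GFP reporter of the hypoxia response; strong numbers were not always called active; many hits fall short of the cut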
BJeLR lethal: BJeLR cell viability loss | BJeLR (HRASV12) viability, CellTiter-Glo ATP luminescence, 48 h; reference of the scale not given here | 300,000 compounds, 0.17% hits | inhibition, % (concentration not given with the values) | AID 1554;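 active means replicate mean above 50%; inconclusive means above 50% but judged a plate artefact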;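 further: 50 nL library stock added to about 25 µL; numbers are from one replicate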
PrP 5UTR inh: suppresses PrP 5' UTR mRNA reporter expression. cell-based PrP 5' UTR mRNA reporter, plate reader. 340,000 compounds, 0.35% hits. inhibition, % (test concentration not listed);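 active means every replicate at 50% or more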;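 further: 0 = median of the neutral control wells; tested in H4 reporter cells; numbers are from one replicate; inactives centre near -14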
Mtb hypoxia rep growth: recorded beside Mtb hypoxia rep, whose call it bears; growth inhibition, %; measured here: M. tuberculosis growth (absorbance);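 0% = vehicle and 100% = reference antibiotic; read after six days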
An asterisk follows results filed as active; ? = inconclusive; · = not tested or not shown. Outcome played no part in choosing rows (roughly 3.9% active in at least one column).

SMILES	Sa ugtP lethal	Autofluor counter	RN4220 kill	Mtb hypoxia rep	Mtb hypoxia rep growth	BJeLR lethal	PrP 5UTR inh
CS(=O)(=O)N(CC(=O)N1CCN(Cc2ccccc2)CC1)C1CCCCC1	4	10257	1.7	-73	-7	4	-36
CCOc1ccc(Oc2ccccc2NC(=O)CCNC(C)=O)cc1	9	3736	7.9	15	13	-1	-13
Cc1cccc(NC(=O)CS(=O)(=O)c2cn(C)c3ccccc23)c1	9	4437	3.9	4	7	5	-7
CN(C)Cc1c(C(=O)NN=Cc2cccs2)nnn1-c1nonc1N	9	·	6.7	5	-2	·	·
Cc1ccc(C=NNC(=O)COc2ccccc2-c2ccccc2)cc1	-19	·	1.0	13	3	·	·
CN(C)C(=O)c1ccc2c3c(cccc13)CC2	4	2679	4.2	-2	2	8	-29
CC1=NOC(=O)/C1=C/c1ccc(O)cc1	0	?	6.3	12	5	4	-25
O=C(COC(=O)c1cc[n+]([O-])cc1)Nc1cccc(F)c1	-5	6445	-1.9	-4	4	·	-24
Cc1cc(CNCc2cn(C)nc2-c2ccc(Oc3ccccc3)cc2)on1	14	2147	4.7	-5	1	10	-15
CC(C)[C@H](NC(=O)OCc1ccccc1)C(=O)OCC(=O)NC1CCCCC1	-1	2978	3.7	0	8	6	-14
COc1cc(/C=N/n2c(-c3n[nH]c4c3CCC4)n[nH]c2=S)ccc1O	·	4266	·	·	·	7	-15
CC(C)CCNC(=O)c1onc(CSc2ccc(F)cc2)c1C(=O)NCCC(C)C	-22	3991	-4.1	8	6	5	0
CSc1cccc(CN2CCN(CCC(C)C)C(CCO)C2)c1 (stereo not given)	9	5227	0.8	4	-1	4	-1
COC(=O)c1ccccc1NC(=S)NC(=O)c1ccc2c(c1)OCO2	4	5752	1.2	9	-2	-4	-12
Cc1cc(OC(C)C)nc(NCc2ccccc2)n1	-17	5495	-2.3	·	·	13	-24
COc1ccc(N2C(=O)NC(=O)/C(=C/c3ccc([N+](=O)[O-])s3)C2=O)cc1	-5	5994	7.9	1	-1	1	·
Cc1ccccc1NC(=S)NCc1cccs1	4	2446	-0.1	·	·	7	-1
O=C(COC(=O)Cc1ccccc1)Nc1ccc(F)cc1	2	2878	7.7	1	6	2	-24
O=C(CNC(=S)NC(=O)c1ccccc1Br)c1ccccc1	3	2026	3.5	5	-6	-9	-16
CCOc1ccc(NC(=O)CN(C)CC(=O)Nc2ccccc2SC)cc1OCC	2	9661	3.6	6	2	-1	-11
CCCc1nc2c(nnn2Cc2ccccc2Cl)c(=O)[nH]1	2	3977	-0.2	3	2	11	-7
CC(c1ccco1)N(C(=O)COc1ccc(Cl)cc1)c1ccccn1 (stereo not given)	14	2654	10	2	1	·	-114
O=C(Cc1nn[nH]n1)NCCC1=CCCCC1	-5	4628	-2.3	·	·	5	-13
CC(C)C(NS(=O)(=O)c1ccccc1)C(=O)N1CCN(C(=O)c2ccco2)CC1 (stereo not given)	2	5299	2.3	1	-1	-14	-10
CN(C)C1=NC[C@H](Cc2ccccc2)N1CC1CCCC1	1	3524	-12	13	13	·	-17
CCSc1nnc([C@@H](NC(=O)OC(C)(C)C)C(C)C)o1	16	3526	3.7	7	8	5	0
O=C(NC1CC2CCC(C1)N2Cc1ccco1)c1ccccc1 (stereo not given)	-2	10333	0.7	2	5	0	-4
CCOC(=O)N1CCN(c2ncnc3nc[nH]c23)CC1	6	5296	2.0	0	1	-1	-43
CC(=O)CSc1ccc(C(=O)O)cn1	1	2022	2.3	6	4	-1	-13
COc1ccc(C(=O)/C=C/c2cn(CN3CCN(C)CC3)c3ccccc23)cc1	-27	23529*	6.1	3	15	·	-60

Next part, starting with the last 2 of the part before.
SMILES	Sa ugtP lethal	Autofluor counter	RN4220 kill	Mtb hypoxia rep	Mtb hypoxia rep growth	BJeLR lethal	PrP 5UTR inh
CC(=O)CSc1ccc(C(=O)O)cn1	1	2022	2.3	6	4	-1	-13
COc1ccc(C(=O)/C=C/c2cn(CN3CCN(C)CC3)c3ccccc23)cc1	-27	23529*	6.1	3	15	·	-60
CCn1cc(C(=O)NCCC(=O)NCCO)c(=O)c2cc3c(cc21)OCO3	5	3175	4.2	5	-7	1	-8
COCCNC(=O)C(c1ccc(Cl)cc1)N(CCOC)C(=O)CCC(=O)Nc1nccs1 (stereo not given)	5	3513	1.1	17	3	-6	-30
CCO[C@@H]1OC(C(=O)NCc2ccccc2)=C[C@H](c2ccc3c(c2)OCO3)[C@H]1CCCO	·	4047	·	·	·	-26	-12
O=C(CC(=O)c1ccccc1)Nc1cc([N+](=O)[O-])ccc1Cl	11	3726	6.9	11	13	25	-16
Cc1ccc(-c2cc(C(=O)OCC(=O)N(C)C3CCS(=O)(=O)C3)c3ccccc3n2)o1 (stereo not given)	-14	3304	-1.4	-14	9	3	-11
CCCc1sc(N/N=C/c2ccccn2)nc1-c1ccc(Br)cc1	·	9163	·	·	·	20	24
COc1ccc(C(=O)NCC(=O)N2CCN(C(=O)c3ccco3)CC2)cc1OC	4	?	2.7	1	8	·	-10
COc1ccc(NC(=O)c2cccc3c2C(=O)c2ccc(-c4ccc(F)cc4OCc4ccccc4)cc2S3(=O)=O)cc1	-7	3062	5.0	0	-3	·	-17
CN1C(=O)N(CC(=O)N2CCN(S(=O)(=O)Cc3ccccc3)CC2)C(=O)C12CCCCC2	5	?	3.2	-2	-3	·	-37
Nc1cc(-c2cccc([N+](=O)[O-])c2)[nH]n1	-5	2447	-0.5	1	14	1	-15
CN1/C(=C\C(=O)Nc2cccc(Cl)c2)C(C)(C)c2ccccc21	18	2316	37	-2	5	3	-8
COc1ccc(/C(C)=N/NC(=O)c2cc(C)[nH]n2)c(OC)c1	·	2835	·	·	·	0	-21
O=C(C1CC1)N1N=C(c2ccc(Cl)cc2)CC1(O)C(F)(F)F (stereo not given)	6	3172	0.7	9	-10	2	-7
CC(=O)Nc1ccc(S(=O)(=O)Nc2nc(C)nc3sc(C)c(C)c23)cc1	1	4558	3.6	3	-1	·	-21
CN(CC(=O)Nc1ccc(Cl)c(C(F)(F)F)c1)C(=O)c1ccc(OCC2CCCO2)cc1 (stereo not given)	3	4848	1.0	1	0	-3	0
NC(=O)c1ccsc1NC(=O)CSc1nncs1	-3	?	-1.1	6	7	·	-5
COc1ccccc1CNC(=O)CSc1ccc(-c2ccncc2)nn1	10	4305	0.9	6	-4	-1	-16
NC(=O)c1ccc(NC(=O)COC(=O)c2ccc3c(c2)OCCO3)cc1	11	4248	1.6	-2	-1	-7	-28
O=C(c1ccccc1)C(Nc1cccc([N+](=O)[O-])c1)c1ccccc1 (stereo not given)	18	3601	-6.5	4	2	·	-4
C[N+](C)(C)CCCN(Cc1ccc2c(c1)OCO2)C(=O)NC1CCCCC1	0	4848	0.2	4	3	1	-38
COc1ccc(-n2cnc(=S)[nH]c2=S)cc1	2	3388	-3.2	17	8	·	-18
COc1ccc(CN2CC(=O)N3C4c5ccccc5OCC4C(c4ccccc4)[C@]3(C)C2=O)cc1 (stereo not given in full)	11	·	5.0	-6	2	·	·
CCCn1cc(CN2CCC(N3CCC(C(=O)N4CCOCC4)CC3)CC2)c(C)n1	10	4457	3.1	11	19	0	-36
C=CCN(CC=C)C(=O)Nc1ccc(OCC)cc1	13	2138	0.3	11	2	0	4
CC(=O)Nc1sc2c(c1-c1nc3ccccc3s1)CCN(C(C)C)C2	52	5109	44	·	·	·	-12
Cc1nn(S(=O)(=O)c2cccs2)c(C)c1Sc1ccc([N+](=O)[O-])cc1	17	4513	-1.3	·	·	-6	-10
CCOC(=O)[C@@H]1[C@H]2COc3ccccc3[C@H]2N2C(=O)N(c3cccc(Cl)c3)C(=O)[C@]12C	-8	3966	-12	4	5	·	-7
COC(=O)C1=C(C)N(CC2CC2)C(=O)NC1c1ccc(Br)cc1 (stereo not given)	9	·	5.4	5	11	·	·
CSc1ccc(CNc2cccc3ccccc23)cc1	64	8874	2.6	7	5	-13	-33
Cc1ccc(NC2=NC(c3ccc(O)cc3)n3c(nc(C)cc3=O)N2)cc1 (stereo not given)	-6	22829*	-1.9	-1	8	-2	-7
Cc1cccc(N2CCN(S(=O)(=O)c3c(C)[nH]c(C)c3C(=O)N3CCCC3)CC2)c1C	-1	4684	-1.2	-8	-6	0	6
CC(C)OCCCn1c(=NC(=O)c2ccncc2)c(C#N)cc2c(=O)n3ccccc3nc21	1	10844	0.4	7	10	10	·
S=C(NCCCn1ccnc1)Nc1ccc(Cl)cc1Cl	1	3982	0.0	9	7	-4	-27
C[C@@H](NC(=O)C1(c2ccccc2)CCN(C(=O)OC(C)(C)C)CC1)C(=O)N[C@@H](Cc1ccccc1)C(=O)O	-2	5864	2.6	·	·	1	-19
CCc1nnc(NC(=O)CSc2nc3c([nH]c4ccccc43)c(=O)n2CCOC)s1	11	5537	1.2	4	-4	-14	-10
COc1cc(C(=O)NNC(=O)Cc2ccc(S(=O)(=O)N3CCOCC3)s2)cc(OC)c1OC	1	5612	0.2	3	9	-9	-3
NC(=O)C1CCCNc2c(I)cc([N+](=O)[O-])cc2C(=O)NC(Cc2ccccc2)C(=O)NC(Cc2cnc[nH]2)C(=O)N1 (stereo not given)	-1	·	-1.8	-1	-1	·	·
O=C(CN1CCC(O)(c2ccc3c(c2)OCO3)CC1)NC1CCCCC1	15	4798	3.8	-4	9	11	-12
O=C(Cn1nnc2ccccc21)C1CC1	-1	3071	-16	21	-16	0	-3
CC(=O)Nc1cc2c(cc1[N+](=O)[O-])OCCO2	2	4064	1.6	8	1	-3	-20
COc1cc(NC(=O)c2cccnc2SC)cc(OC)c1OC	-7	2503	3.9	7	15	-9	-6
CCCCn1c(N2CCCC2)nc2c1c(=O)[nH]c(=O)n2C	9	3790	4.9	5	-2	6	·
COc1ccc(CCNC(=O)CC(C)(C)CC2=NS(=O)(=O)c3ccccc3N2)cc1OC	13	4731	4.0	6	6	-1	-15
CC(c1ccccc1)n1c(-c2ccccc2F)n[nH]c1=S (stereo not given)	-2	3944	8.1	2	8	-9	-28
O=c1c2ccccc2ncn1CCCSc1ccc(Cl)cc1	1	4167	7.2	·	·	3	-16

Among those listed so far, 2 have a tert-butyl group.
SMILES	Sa ugtP lethal	Autofluor counter	RN4220 kill	Mtb hypoxia rep	Mtb hypoxia rep growth	BJeLR lethal	PrP 5UTR inh
CCSc1nnc([C@@H](NC(=O)OC(C)(C)C)C(C)C)o1	16	3526	3.7	7	8	5	0
C[C@@H](NC(=O)C1(c2ccccc2)CCN(C(=O)OC(C)(C)C)CC1)C(=O)N[C@@H](Cc1ccccc1)C(=O)O	-2	5864	2.6	·	·	1	-19

(continued)
SMILES	Sa ugtP lethal	Autofluor counter	RN4220 kill	Mtb hypoxia rep	Mtb hypoxia rep growth	BJeLR lethal	PrP 5UTR inh
C[C@H](CO)N1C[C@H](C)[C@@H](CN(C)CC2CCCCC2)Oc2c(NC(=O)C3CC3)cccc2C1=O	-5	3776	-5.7	0	8	·	-26
O=C(Cc1ccccc1)Nn1cnc2ccccc21	1	12586	2.4	7	10	-5	-21
COc1ccc(C(=O)Nn2cnnc2)cc1OC	2	4395	0.7	4	11	0	-20
CCOc1ccc(/C=C2/Sc3ccc(C(=O)NCC4CCCO4)cc3N(C)C2=O)cc1OC (stereo not given)	-5	5200	3.3	3	6	2	-2
CC(C)NS(=O)(=O)c1ccc(OCC(=O)N2CCCC2)cc1	7	9380	4.8	17	11	-3	-4
Cc1cc(C)nc(-n2nc(C)cc2NC(=O)CNC2CCCCC2)n1	-6	8908	-4.4	3	4	3	-9
O=C(O)c1cnn2c(C(F)(F)F)cc(-c3ccco3)nc12	-5	13391	-0.9	-10	13	-2	1
CCCN(CCC)CC(O)COc1ccc([N+](=O)[O-])cc1 (stereo not given)	3	4166	0.6	·	·	9	-5
CN(C1CCCCC1)S(=O)(=O)c1ccc2c(c1)c(=O)c(C(=O)NCCCN1CCCC1)cn2C	4	4897	3.8	·	·	-3	5
CC(NC(=O)CCC(=O)Nc1ccccc1O)c1ccccc1 (stereo not given)	1	3415	4.5	10	8	6	·
COc1ccc2ccccc2c1/C=N/NC(=O)c1cccc([N+](=O)[O-])c1	·	3430	·	·	·	2	-23
CCOC(=O)[C@@H]1[C@H]2COc3ccc(Br)cc3[C@H]2N2C(=O)N(c3ccc(C)cc3)C(=O)[C@]12C	·	3536	·	·	·	-5	-8
COc1ccc(CC(=O)Nc2ccc(-c3ccc4nnc(C)n4n3)cc2)cc1OC	10	4698	3.0	7	4	7	-35
